Sa growth 42C = S. aureus growth inhibition | S. aureus RN4220 growth, OD600, 20 h, 42 °C; active compounds read low | 0.53% of 170,000 active | relative growth, % (test concentration not listed) | AID 720641;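 active means growth at 42 °C up to 50% and 20 or more points under that at 30 °C, or under 10% at both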;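 further: 300 nL library stock went into each well; scaled to the means of positive and negative controls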
GIV Gai3 FP = inhibitors of GIV GBA-motif binding to rat Galpha-i3; 0.42% of 210,000 active; percent of control (FP), % (test concentration not listed); P08753; Galpha-i3/FITC-GIV peptide fluorescence polarization, 90 min; active compounds read low; scaled: aluminum fluoride 0%, vehicle 100%;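 active means replicate mean at 85% of control or lower, very high polarization wells dropped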;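 further: lower values mean more displacement of the GIV peptide from Galpha-i3; wells of about 15 µL received 100 nL stock; the first replicate is given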
Target sequence (P08753 whole entry, looked up): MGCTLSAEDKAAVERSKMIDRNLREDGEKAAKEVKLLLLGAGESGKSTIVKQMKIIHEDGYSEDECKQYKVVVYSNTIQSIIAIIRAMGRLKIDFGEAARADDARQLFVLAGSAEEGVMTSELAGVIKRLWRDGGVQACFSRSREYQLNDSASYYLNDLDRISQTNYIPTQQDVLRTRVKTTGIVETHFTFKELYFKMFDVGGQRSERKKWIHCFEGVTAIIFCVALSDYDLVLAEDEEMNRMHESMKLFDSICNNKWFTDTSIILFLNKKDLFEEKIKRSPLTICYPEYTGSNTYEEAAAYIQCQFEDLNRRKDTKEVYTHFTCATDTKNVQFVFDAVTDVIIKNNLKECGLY
HCMV NEC inh = inhibitors of HCMV UL50-UL53 nuclear egress complex interaction. HTRF UL50-UL53 interaction, normalized percent inhibition. inhibition, % (concentration not given with the values). 0.15% of 190,000 active. AID 1918969;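 active means both replicates at 50% or more, plus weaker picks with an unusually low signal ratio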;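 further: stock transfer was 100 nL into about 20 µL; 0% = negative control wells and 100% = wells with untagged competitor protein; inactives centre near -12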
Sa growth 42C second temp = also measured in Sa growth 42C; calls as there; relative growth, %; measured here: growth at 30 °C;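 optical density after 20 h as mean of two plates; 100% = untreated growth and lower means inhibition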
* hit, by the source's call; / = not tested or not shown.

SMILES	Sa growth 42C	Sa growth 42C second temp	GIV Gai3 FP	HCMV NEC inh
CC1=C(C(=O)Nc2cccnc2)C(c2cccc(F)c2)n2nc(SCc3ccccc3)nc2N1 (configuration not stated)	135	87	101	-12
Cc1ccc(Nc2cc3sc4ccccc4[nH]c3c3c(=O)c4ccccc4c(=O)c23)cc1	/	/	106	-4
Cc1ccc(CNC(=O)Cc2c(C)c3c(cc(C)c4c(C)coc43)oc2=O)cc1	87	94	111	1
COc1ccc(/C=C/C(=O)Nc2ccc3nc4c(c(Nc5ccc(OC)c(OC)c5)c3c2)CCCC4)cc1	114	56	104	-30
COc1ccc(-n2nc(C(=O)NCC(=O)NC3CCCC(C)C3C)c3ccccc3c2=O)cc1 (configuration not stated)	102	74	102	/
Cc1ccc(NC(=O)c2cc(CN3CCCC3)on2)c(C)c1	/	/	108	-13
CCOC(=O)C1=C(C)N=c2s/c(=C\c3cccc(O)c3)c(=O)n2C1c1ccc(OCC)c(OCC)c1 (configuration not stated)	/	/	100	-9
COC(=O)c1sccc1NC(=O)CC1C(=O)NCCN1C(=O)Nc1ccccc1 (configuration not stated)	95	84	109	-20
COc1ccc2c(c1)c1c(c(=O)n(-c3ccc(F)c(Cl)c3)c(=O)n1Cc1ccccc1F)n2C	112	91	106	/
O=C(N/N=C/c1ccccc1O)NC12CC3CC(CC(C3)C1)C2	88	77	102	-24
O=C(CSc1nc2ccccc2n1Cc1ccccc1)N1CCN(c2ccc(F)cc2)CC1	105	82	97	-27
COc1ccc(NC(=O)CN2CC(C)OC(C)C2)cc1OC (configuration not stated)	111	91	/	-2
CN(C(=O)c1ccccc1)c1ccc(OCC(=O)N2CCc3ccccc3C2)cc1	105	82	/	-17
Cc1ccccc1Cn1c(Cc2ccccc2)nc2ccccc21	92	84	102	/
NC(=O)c1c(N)c(C(N)=S)n2c1CCC2	92	76	96	/
C=CCNS(=O)(=O)c1ccc(C)cc1	96	90	/	-10
CN1Cc2c(N3CCOCC3)nc3sc(C(=O)c4ccccc4)c(N)c3c2CC1(C)C	/	/	103	-50
CCCn1c(C)ccc(-c2noc(CCCC(=O)N3CCCC3)n2)c1=O	/	/	104	-15
Cc1cccc(N2CCN(S(=O)(=O)c3cc(C(=O)Nc4ccc(Oc5ccccc5)cc4)ccc3F)CC2C)c1 (configuration not stated)	113	92	104	/
CN(C)c1ccc(-c2nc3cnccn3c2Nc2cccc(C(F)(F)F)c2)cc1	85	93	110	-3
O=C(Cn1cccc1C(=O)c1ccccc1)NCc1ccccn1	107	85	102	/
COc1ccccc1CNC(=O)c1cnc2sc(N3CCCCCC3)nn2c1=O	85	93	101	/
C=CCn1c(CN(c2ccc(F)cc2)S(C)(=O)=O)nnc1SCC(=O)c1ccc(Cl)cc1	/	/	103	-14
COc1ccc2cc3c(nc2c1)N(C(=O)c1cccc(Br)c1)CC3	/	/	105	10
CC1(C)C2CCC1(C)C(OC(=O)CSc1nc(N)cc(=O)[nH]1)C2 (configuration not stated)	95	82	103	-19
CCn1cc(C2=NOC(C(=O)NCc3ccccc3)C2)c(C)n1 (configuration not stated)	99	92	98	-4
CCOc1ccc(-c2nc3c(c(CC)nn3-c3ccccc3)c3cc(OC)c(OC)cc23)cc1	109	94	110	-8
COCCOC(=O)C1=C(C)NC2=C(C(=O)CC(c3ccc(OC)cc3)C2)C1c1ccc(O)c(OC)c1 (configuration not stated)	/	/	104	-60
COc1cccc(CNC(=O)c2ccc3c(c2)N(C)CCS3)c1	108	90	101	2
C=CCc1cccc2cc(C(=O)Nc3ccc(F)cc3)c(=O)oc12	103	83	107	-11
CC(C)(C)c1ccc(CSC2=Nc3ccccc3C3=NC(CC(=O)NCc4cccs4)C(=O)N23)cc1 (configuration not stated)	66	66	103	/
O=C(CCn1c(=O)[nH]c2ccsc2c1=O)Nc1ccc(F)c(F)c1	84	81	98	-28
NC(=O)C1CCN(c2ncccn2)CC1	/	/	101	-13
O=C(NCCN1C(=O)S/C(=C\c2ccc(OC(F)F)cc2)C1=O)C1COc2ccccc2O1 (configuration not stated)	117	86	/	-9
O=C(OC(C(=O)NC1CCCC1)c1ccccn1)c1cccs1 (configuration not stated)	102	92	105	0
Cn1cnc(S(=O)(=O)N2CCC(C(=O)Nc3ccc(OC(F)(F)F)cc3)CC2)c1	103	93	98	/
O=C(Cn1nnc(N2CCCCC2)n1)c1ccc(Cl)c(Cl)c1	107	96	103	3
O=c1c(S(=O)(=O)c2ccc(F)cc2)c[nH]c2cc(F)ccc12	/	/	102	5
COc1ccc(NS(=O)(=O)c2ccc3c(c2)N(C(C)=O)CCCS3)cc1OC	/	/	101	-33
CC1CCN(C(=O)C2CCCN(c3ccnc(-c4ccc(F)cc4)n3)C2)CC1 (configuration not stated)	/	/	102	-28
COc1ccc(N2CCN(C(=O)CCc3nc4sc5c(c4c(=O)[nH]3)CCCCC5)CC2)cc1	/	/	99	-12
O=C(CSc1nc(-c2ccccc2)nc2c1CCCC2)c1ccc(F)cc1	110	88	104	-24
CC(C)CNS(=O)(=O)c1ccc(S(=O)(=O)N2CCN(c3ccccc3)CC2)cc1	128	107	102	-13
CCC(C)Cc1c(C)sc2[nH]c(=S)[nH]c(=O)c12 (configuration not stated)	77	89	/	-2
S=c1nc(-c2ccccc2)oc2c1CCCC2	110	85	102	/
COc1cccc(C(=O)N(Cc2nc(-c3ccccc3)no2)C(C)C)c1	106	88	105	-27
CC(C)NC(=S)N/N=C/c1cn(-c2ccccc2)nc1-c1cccs1	121	102	/	-5
CCOC(=O)/C(C#N)=N/O	69	87	/	-37
COc1ccc(C2(N3CCN(c4cccc(C)c4C)CC3)C(=O)c3ccccc3C2=O)cc1	115	89	103	-10
CCCCN(CC)c1ncc(NS(=O)(=O)CC)cc1C(=O)O	/	/	110	-39
CC(C)NC(=O)c1nc(Nc2ccc(F)cc2)c2ccccc2n1	/	/	104	-5
NS(=O)(=O)c1cc(C(=O)NCC(F)(F)F)ccc1Cl	94	88	/	-28
CC(C)(C)OC(=O)N1CCC(c2c(C(=O)N3CCc4ccccc4C3)cnn2-c2ccc(Cl)cc2)CC1	89	94	113	/
O=c1[nH]nc(-c2ccc(Br)cc2)c2c1Nc1nnnn1C2c1cccc(F)c1 (configuration not stated)	/	/	100	-3
NS(=O)(=O)c1ccc(NC(=O)CSc2nnc3sc4ccccc4n23)cc1	/	/	97	-14
CCOC(=O)c1cnn(C(=O)c2ccc(C(F)(F)F)cc2)c1N	120	100	99	49
O=c1[nH]cnc2ccc(NC(=S)NC3CC3)cc12	121	87	/	-17
Cc1ccccc1NC(=O)c1ccc2nnc(C)n2c1	/	/	101	-47
COCCN1C=C(C(=O)OC)C(c2cc3c(cc2Br)OCO3)C(C(=O)OC)=C1	97	96	102	-6
O=c1c2ccccc2cnn1-c1ccccn1	83	97	/	-6

Rewritten as comma-separated lines: part of the list above
Molecule,Sa growth 42C,Sa growth 42C second temp,GIV Gai3 FP,HCMV NEC inh
O=C(CSc1nc(-c2ccccc2)nc2c1CCCC2)c1ccc(F)cc1,110,88,104,-24
CC(C)CNS(=O)(=O)c1ccc(S(=O)(=O)N2CCN(c3ccccc3)CC2)cc1,128,107,102,-13
CCC(C)Cc1c(C)sc2[nH]c(=S)[nH]c(=O)c12 (configuration not stated),77,89,/,-2
S=c1nc(-c2ccccc2)oc2c1CCCC2,110,85,102,/
COc1cccc(C(=O)N(Cc2nc(-c3ccccc3)no2)C(C)C)c1,106,88,105,-27
CC(C)NC(=S)N/N=C/c1cn(-c2ccccc2)nc1-c1cccs1,121,102,/,-5
CCOC(=O)/C(C#N)=N/O,69,87,/,-37
COc1ccc(C2(N3CCN(c4cccc(C)c4C)CC3)C(=O)c3ccccc3C2=O)cc1,115,89,103,-10
CCCCN(CC)c1ncc(NS(=O)(=O)CC)cc1C(=O)O,/,/,110,-39
CC(C)NC(=O)c1nc(Nc2ccc(F)cc2)c2ccccc2n1,/,/,104,-5
NS(=O)(=O)c1cc(C(=O)NCC(F)(F)F)ccc1Cl,94,88,/,-28
CC(C)(C)OC(=O)N1CCC(c2c(C(=O)N3CCc4ccccc4C3)cnn2-c2ccc(Cl)cc2)CC1,89,94,113,/
O=c1[nH]nc(-c2ccc(Br)cc2)c2c1Nc1nnnn1C2c1cccc(F)c1 (configuration not stated),/,/,100,-3
NS(=O)(=O)c1ccc(NC(=O)CSc2nnc3sc4ccccc4n23)cc1,/,/,97,-14
CCOC(=O)c1cnn(C(=O)c2ccc(C(F)(F)F)cc2)c1N,120,100,99,49
O=c1[nH]cnc2ccc(NC(=S)NC3CC3)cc12,121,87,/,-17
Cc1ccccc1NC(=O)c1ccc2nnc(C)n2c1,/,/,101,-47
COCCN1C=C(C(=O)OC)C(c2cc3c(cc2Br)OCO3)C(C(=O)OC)=C1,97,96,102,-6
O=c1c2ccccc2cnn1-c1ccccn1,83,97,/,-6

(more compounds)
SMILES	Sa growth 42C	Sa growth 42C second temp	GIV Gai3 FP	HCMV NEC inh
CCCn1c(=O)c2sccc2n2c(CCCC(=O)NCCc3ccccc3)nnc12	107	95	105	-1
CCOc1ccccc1NC(=O)c1c(NC(=O)COc2ccccc2)sc2c1CCCC2	102	83	104	-34
COc1cc(-c2noc(-c3ccccc3)n2)ccc1OCC(=O)Nc1ccccc1Cl	/	/	112	-30
CCCCn1c(SCC(N)=O)nc2cc(S(N)(=O)=O)ccc21	100	95	/	-30
Cc1ccc2c(c1)N(C(=O)c1ccc(F)cc1)C(C)(C)CC2(C)c1ccccc1 (configuration not stated)	105	88	107	-32
O=C(O)CCC(=O)N1CCCC1C(=O)O (configuration not stated)	/	/	107	-12
Cc1ccc(NC(=O)c2ccc(CN3CCCn4nc(C)cc43)cc2)c(C)c1	103	82	106	-19
Cc1ccc(S(=O)(=O)N(C)Cc2ccc(-c3nnco3)cc2)cc1	91	90	/	-8
CCCCn1c(C2NC(=O)NC(C)=C2C(=O)OCC)nc2ccccc21 (configuration not stated)	/	/	96	4
Cn1nc(-c2ccc(N3CCCCC3)c(NC(=O)c3ccc(Cl)cc3)c2)c2ccccc2c1=O	96	83	105	-27
Cc1c(CC(=O)O)c(=O)oc2c(C)c3occ(-c4ccc(Br)cc4)c3cc12	13	0	100	/
O=C(Cn1ncc2ccccc21)Nc1ccc(Br)cn1	121	79	107	/
Cc1ccc(-c2n[nH]c(=O)c3ccccc23)cc1S(=O)(=O)N1CCCCC1	/	/	104	-6
NCCNc1ccccn1	105	88	101	-24
CC(SCC(=O)N1CCCCCC1)c1nc2scc(-c3cccs3)c2c(=O)[nH]1 (configuration not stated)	98	95	/	-24
O=C(Nc1ccccc1C(=O)NC(Cc1ccccc1)C(=O)O)c1ccccc1 (configuration not stated)	115	95	107	-4
Cc1nc(-c2ccc(S(=O)(=O)N3CCC(n4cccc4)CC3)s2)cs1	89	97	100	-15
CCOC(=O)c1[nH]c(C)c(S(=O)(=O)Nc2cc(F)ccc2F)c1C	/	/	101	-30
Cc1noc(C)c1CSCC(=O)c1cc(C)n(-c2ccccc2)c1C	80	36	/	-14
C=C1C(C(=O)NCc2ccncc2)C1C(=O)NCc1ccncc1 (configuration not stated)	127	92	/	-1
O=C1Nc2ccccc2C12NNC(=S)NN2	51	24	103	-78
CCc1ccccc1NC(=O)C1CCN(S(=O)(=O)c2ccccc2)CC1	103	83	111	-19
Cc1ccc(S(=O)(=O)n2nc(-c3cccc(C)c3)nc2N)cc1	/	/	101	-16
CCc1nc2c(cnn2-c2ccc(Cl)cc2)c(=O)n1CCc1ccc(Cl)cc1	/	/	111	-33
CC(C)Cc1cc(C(=O)Nc2sc3c(c2C#N)CCC3)no1	83	75	97	-15
COc1ccccc1/C=C1\SC(=S)N(CCC(=O)OCCN(C)C)C1=O	/	/	102	-67
COc1ccc(C(=S)N2CCN(C(N)=S)CC2)cc1	99	84	106	-37
O=c1nc(NCc2ccccc2)cn[nH]1	93	82	101	-22
CCCCc1ccc(NC(=O)COc2cccc3c(=O)n(C)ccc23)cc1	116	83	99	/
O=S(=O)(c1ccc(NCCc2ccccn2)nc1)N1CCCC1	119	96	/	4
Cc1ccc(-n2nc(N3CCCN(C(=O)c4cc5ccccc5[nH]4)CC3)ccc2=O)cc1C	/	/	101	-10
COc1cc(/C=C2\SC(N)=NC2=O)ccc1OC(=O)c1ccc(Cl)cc1	/	/	108	-12
Cc1ccc(CN(C(=O)c2ccccc2F)c2ccccn2)o1	94	72	123	-36
COc1cccc(C2C3=C(CC(C)(C)CC3=O)Nc3ccccc3N2C(C)=O)c1 (configuration not stated)	99	95	107	/
CC(C)c1nccn1CCC(=O)O	112	98	104	/
O=C1c2ccccc2C(=O)N1c1ncn[nH]1	91	110	93	2
CCc1nn2c(=O)cc(COc3ccc(NC(=O)c4ccccc4)cc3)nc2s1	91	71	104	-18

Outcome played no part in choosing rows. Share with any hit: about 0.8%.
